HTT prom inh = inhibitors of huntingtin promoter activity; Potency, µM (highest dose often 57.5 µM), for inactives: top-dose activity change, negative = inhibition, actives largely listed as inhibitors; HEK293 HTT promoter firefly luciferase reporter (activity 0% = vehicle and -100% = no light), 24 h; AID 1508623; 0.93% of 48,000 active; active = well fitted inhibition curve with a large enough effect; inconclusive = small, poorly fitted or top-dose-only effect; inactive = no such curve, though single readings can be large or run the other way; also: nearly all actives have a fitted effect of over 50% in size
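Luminescence was read after Dual-Glo reagent and a 10 min room-temperature incubation. Values were normalized to vehicle (0% activity) and zero RLU (-100% activity). Reporter HEK293 cells had been exposed to compounds (up to 57.5 uM final) for 24 h.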
PMP22 txn = PMP22 gene transcription modulation; S16 Pmp22-F2sN Schwann cells (luciferase reporters placed in the Pmp22 gene), FLuc/NLuc coincidence luminescence, 24 h; Potency, µM (top dose mostly 57.5 µM), without a hit: at the highest dose activity change, negative = inhibition, hits mostly inhibitors; 2% of 43,000 active; active = clear falling dose curves in both reporters; inconclusive = both reporters move, but less clearly or upward; inactive = either reporter flat; the % is the NLuc reporter signal; also: % is scaled to controls: 0 for no effect and ±100 for the full control effect; some results filed as inactive show a strong effect at the top dose
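S16 Schwann cells carrying FLuc/NLuc coincidence reporter in the Pmp22 3' UTR treated with compound 24 h at 37C; FLuc then NLuc luminescence read sequentially by dual-luciferase reagents.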
* hit, by the source's call; ? = inconclusive; / = not tested or not shown; [ ] = dose if it differs, or a comment. Potency is read from the fitted curve at half-maximal effect.

Compound	HTT prom inh	PMP22 txn
CCc1ccc(NC(=O)CN(C)S(=O)(=O)c2ccc3c(c2)c(=O)n(C)c(=O)n3C)cc1	-12%	?
COc1ccc(-c2onc(C)c2C)cc1S(=O)(=O)N1CCC(C)CC1	?	?
O=C(NCCc1nc2ccccc2n1CCCOc1ccc(Cl)cc1)C1CCCCC1	?	?
COc1ccc(CNCc2c(C(=O)O)n(Cc3ccc(F)cc3)c3cc(C)ccc23)cc1OC	-23%	?
Cc1cc(NC(=O)CCc2nc3cccnc3n2Cc2cccs2)ccc1Br	?	?
CCc1ccc2c(c1)c(=O)c(C(=O)c1ccccc1)cn2CC(=O)Nc1ccc(C)c(Cl)c1	-10%	-16%
CCOc1ccccc1NC(=O)c1cn(C2CCCCC2)c(=O)c2c1c1ccccc1n2C	-15%	?
COc1cccc(CNC(=O)c2ccc(CSc3nc4ccncc4n3Cc3cccc(C)c3)cc2)c1	?	-16%
Cc1ccc(-c2nc(C(=O)N3CCN(c4ccccc4)CC3)c3n2CCCCC3)cc1	-18%	?
Cc1ccc(N(CC(=O)Nc2ccc(OC(F)(F)F)cc2)S(=O)(=O)c2c(C)noc2C)cc1	?	?
Cc1ccc2c(CNC3CCCC3)c(C(=O)O)n(Cc3ccc(F)cc3)c2c1	-14%	-3%
CC(C)c1nn2c(=O)cc(COC(=O)c3ccccc3NC(=O)C3CCCCC3)nc2s1	-19%	2%
COc1ccc2c(c1)CC(C(=O)N1CCC(C(N)=O)CC1)CO2 (stereo not drawn)	-12%	0%
O=C(CC1N=C2c3ccccc3N=C(SCc3ccc(F)cc3)N2C1=O)NCCc1ccccc1 (stereo not drawn)	-7%	-10%
COc1ccc(/C=C/C(=O)Nc2cccc(F)c2)cc1	6%	?
CCN(CC)c1ccc2cc(-c3nnc(Nc4ccc(C)cc4)s3)c(=O)oc2c1	-11%	?
Cc1cc(C)c(-c2n[nH]c3c2C(c2ccccc2F)N(Cc2ccco2)C3=O)c(O)c1 (stereo not drawn)	?	?
O=S(=O)(c1ccc(Br)cc1)c1nnn2c1nc(Nc1cccc(C(F)(F)F)c1)c1sccc12	-7%	?
O=C1COc2cc(S(=O)(=O)CCC(=O)N3CCN(c4ccccc4)CC3)c(Cl)cc2N1	-21%	-28%
CCOc1cc(C(=O)Nc2ccc(-c3nc4cc(Cl)ccc4o3)cc2)cc(OCC)c1OCC	10%	2%
Cc1ccc(Nc2c(-c3ccc(C)cc3)nc3ccc(C)cn23)cc1	39%[activator]	-29%
COc1ccc(CC(=O)NCc2ccc3c(c2)CCN3C(=O)c2ccc(Cl)cc2)cc1OC	?	?
Cc1ccc(-c2cc(NC(=O)C(C)Oc3ccccc3F)on2)cc1 (stereo not drawn)	24%	-10%
O=C(CSc1nc(-c2ccccc2)cn1-c1ccccc1F)Nc1ccc(F)cc1	-25%	?
Cc1ccccc1Cn1c(=O)n(CC2CCC(C(=O)N3CCC(C)CC3)CC2)c(=O)c2sccc21 (stereo not drawn)	?	?
Cc1sc2ncn(CC(=O)N3CCN(c4cccc(Cl)c4)CC3)c(=O)c2c1S(=O)(=O)N1CCN(c2ncccn2)CC1	-16%	4%
CC1C(=O)Nc2ccc(S(=O)(=O)Nc3ccccc3Br)cc2NC1=O (stereo not drawn)	-8%	18%
CCc1ccc(Nc2nc3c(S(=O)(=O)c4cccc(Cl)c4)nnn3c3ccsc23)cc1	-17%	?
COc1ccccc1C(=O)Nc1ccc2oc(-c3cccc4c(Br)cccc34)nc2c1	-7%	?
COc1ccc(CCNC(=O)C(=O)NCC(c2ccco2)S(=O)(=O)c2ccc(C)cc2)cc1 (stereo not drawn)	?	?
CCOC(=O)c1c(NC(=O)c2ccc(S(=O)(=O)N(CC)CC)cc2)sc2c1CCCCC2	-5%	-13%
CCOc1ccccc1CNC(=O)Cn1nc(N2CCN(c3ccccc3)CC2)ccc1=O	3%	-24%
CCCCN(CC)CCNC(=O)C1CCCN(S(=O)(=O)c2cccc3nsnc23)C1 (stereo not drawn)	3%	-11%
CCCCCOc1ccccc1/C(=C\SC)n1ccnc1	?	/
Cc1ccc(-c2cc(C(F)(F)F)c(C#N)c(SCC(=O)Nc3ccccc3F)n2)cc1	-23%	-9%
CCc1nn2c(=O)cc(COC(=O)c3ccc(NC(=O)CCc4ccccc4)cc3)nc2s1	-15%	?
COCCNC(=O)CSc1nnc(-c2ccc(OC)c(OC)c2)c(-c2ccc(OC)c(OC)c2)n1	-14%	?
COc1ccc(OC)c(Nc2nc3ccccc3nc2-n2nc(C)cc2C)c1	2%	-10%
Cc1ccc(NC(=O)c2c(NC(=O)c3ccc(F)cc3)sc3c2CCCC3)cc1C	57%[activator]	0%
CCOC(=O)c1cnn2c(C(F)(F)F)cc(-c3ccc(Br)cc3)nc12	-7%	?
CC(C)n1c(=N)c(C(=O)NCc2ccccc2)cc2c(=O)n3ccccc3nc21	-5%	0%
CCOc1ccc(N(CC(=O)Nc2ccccc2CC)S(=O)(=O)c2c(C)[nH]c(=O)[nH]c2=O)cc1	-13%	9%
Cc1cc(OC(=O)c2cc(-c3ccc4c(c3)OCCO4)on2)ccc1Cl	-1%	-8%
CCc1ccccc1NC(=O)C1=CC(c2ccc3c(c2)OCO3)=NS(=O)(=O)N1C	-17%	5%
CCc1ccc(S(=O)(=O)c2nnn3c2nc(NCc2ccccc2OC)c2cc(Cl)ccc23)cc1	-5%	-3%
COc1cc(C(=O)N2CCCCCCC2)cc(OC)c1OC	7%	/
COc1cccc(NC(=O)Cn2cnc3c(nc4n3CCCCC4)c2=O)c1	-11%[11.5 µM]	1%
CCC1CCCCN1C(=O)CSc1n[nH]c(-c2ccccc2)n1 (stereo not drawn)	11%	-11%
CC(=O)c1ccc(NC(=O)C2Cc3ccccc3N2C(=O)c2ccccc2)cc1 (stereo not drawn)	-13%	-17%
Cc1ccc(-c2nc3cc(NC(=O)c4cc5ccccc5o4)ccc3o2)cc1Cl	-15%[11.5 µM]	7%
CCOC(=O)C1CCN(C(=O)CSc2n[nH]c(-c3ccc(OC)cc3)n2)CC1	5%	0%
CCN(CC)S(=O)(=O)c1ccc(C(=O)NC2CC(=O)N(c3ccc(OC)c(OC)c3)C2)cc1 (stereo not drawn)	-18%	-7%
O=C(CN1C(=O)COc2ccc(S(=O)(=O)N3CCOCC3)cc21)NCc1ccc(Cl)cc1	-6%	-11%
CCOc1ccc(NC(=O)CCc2c(C)nc3c(-c4ccccc4)c(C)nn3c2C)cc1	-4%	7%
CCN(C(=O)c1nn(-c2ccc(C)cc2)c(=O)c2c1c1ccccc1n2C)c1ccc(F)cc1	-8%	4%
Cc1ccc(S(=O)(=O)N(Cc2nc(-c3cccc(C)c3)no2)C2CCCCC2)cc1	-30%	?
COc1ccc(NC(=O)c2ccco2)cc1NC(=O)c1ccccc1[N+](=O)[O-]	3%	?
Cc1ccc(O)c2ncccc12	4%	/
COc1ccccc1NC(=O)Cn1c(=O)n(CCc2ccccc2)c(=O)c2c3c(sc21)CN(C(C)=O)CC3	?	?
Cc1ccc(C)c(Cn2c(=O)n(Cc3ccc(C(=O)NC4CCN(Cc5ccccc5)CC4)cc3)c(=O)c3ccccc32)c1	-10%	-4%

Next part.
Compound	HTT prom inh	PMP22 txn
COc1ccc(CN(C(=O)c2ccccc2F)C2CCS(=O)(=O)C2)cc1 (stereo not drawn)	-13%	-3%
COc1cccc(N2CCN(C(=O)c3ccc4c(Cl)c5c(nc4c3)CCCC5)CC2)c1	1%	-9%
CC(=O)N1CCc2c(sc3c2c(=O)n(CCc2ccccc2)c(=O)n3Cc2ccc(F)cc2)C1	?	?
Cc1ccccc1-c1nc(CS(=O)(=O)CC(=O)NCCCN2CCN(C)CC2)c(C)o1	-17%	3%
CCc1ccc(NC(=O)CC2C(=O)NCCN2C(=O)c2ccc(F)cc2)cc1 (stereo not drawn)	-7%	1%
CCN(CC)S(=O)(=O)c1ccc2c(c1)N(CC(=O)Nc1ccc(OC)cc1)C(=O)CS2	-20%	?
COc1ccccc1Nc1ncc2c(n1)CCN(Cc1cc(F)cc(F)c1)C2	?	-13%
Cc1oc2ncn(CC(C)C)c(=O)c2c1C(=O)NC(C)c1ccccc1 (stereo not drawn)	-9%	?
COc1ccc(NC(=O)Cn2nnc(C(=O)NCCc3ccccc3)c2N)cc1	-19%	-20%
Cc1oc(-c2ccccc2)nc1CSc1nnc(C)n2c1cc1sccc12	-5%	-13%
O=C(Cn1c(-c2cccs2)cc2cc(Cl)ccc21)N1CCN(c2ccccc2)CC1	-13%	13%
Cc1nn(-c2ccc(N3CCOCC3)nn2)c(C)c1CCC(=O)NCc1ccc(OC(C)C)cc1	-17%	-12%
CC(C)(C)c1ccc(/C=C/C(=O)Nc2ccc(S(N)(=O)=O)cc2)cc1	?	?
O=C(COCc1cc(-c2cccs2)on1)N1CCN(c2ccc(F)cc2)CC1	-28%	?
COc1cc(C(=O)NCCc2sc(-c3ccc(C)cc3)nc2C)cc(OC)c1OC	-19%	1%

Some of these compounds in order of length of the SMILES, falling:
Compound	HTT prom inh	PMP22 txn
CC(=O)N1CCc2c(sc3c2c(=O)n(CCc2ccccc2)c(=O)n3Cc2ccc(F)cc2)C1	?	?
CC(C)(C)c1ccc(/C=C/C(=O)Nc2ccc(S(N)(=O)=O)cc2)cc1	?	?
CCc1ccc(NC(=O)CC2C(=O)NCCN2C(=O)c2ccc(F)cc2)cc1 (stereo not drawn)	-7%	1%
O=C(COCc1cc(-c2cccs2)on1)N1CCN(c2ccc(F)cc2)CC1	-28%	?
Cc1oc2ncn(CC(C)C)c(=O)c2c1C(=O)NC(C)c1ccccc1 (stereo not drawn)	-9%	?
Cc1oc(-c2ccccc2)nc1CSc1nnc(C)n2c1cc1sccc12	-5%	-13%

Next section.
Compound	HTT prom inh	PMP22 txn
C=CC(=O)Nc1cccc(Oc2nc(Nc3ccc(N4CCN(C)CC4)cc3OC)ncc2Cl)c1	-16%	/
CC(C)Oc1ccc(CNC(=O)C2CCN(C(=O)N3CCOc4ccc(Cl)cc43)CC2)cc1	?	?
CC(NC(=O)C1=Cc2ccccc2OC1)c1ccccc1 (stereo not drawn)	-25%	-20%
CSc1nc(Nc2ccc(C)cc2)c(C#N)c(-c2ccccc2)n1	-13%	23%
Cc1ccc(CNC(=O)c2cc3sccc3n2Cc2ccc(F)cc2)cc1	-14%	-12%
O=C(Nc1ccc(F)c(Cl)c1)N1CCN2CCCCC2C1 (stereo not drawn)	-3%	?
CCn1c(=O)n(CC)c2cc(N3CCCCC3)c(NC(=O)Nc3cc(Cl)ccc3OC)cc21	?	?
CCC(C(=O)NCCCN(CC)CC)n1ncn2c(cc3occc32)c1=O (stereo not drawn)	-16%	-5%
CCCn1c2ccccc2c2cnn(CC(=O)NCCCOC(C)C)c(=O)c21	-13%	-5%
CCCSc1ncc(Cl)c(C(=O)Nc2ccc(OC)cc2OC)n1	-10%	-1%
CCCCSc1nc2sc3c(c2c(=O)n1-c1ccccc1C)CC(C)(C)OC3	1%	-15%
COc1ccc(C(=O)CSc2nc(C)cc(C)c2C(=O)Nc2ccccc2C)cc1	-27%	?
COc1cccc(CNC(=O)C(C)n2ncn3cccc3c2=O)c1OC (stereo not drawn)	-3%	6%
Cc1ccc(Nc2nc3ccc(C)cc3nc2-n2nc(C)cc2C)c(C)c1	2%	-3%
CCCCNC(=O)CSc1nc2nc(C)c(Cc3c(F)cccc3Cl)c(C)n2n1	-17%	-19%
CCC(C)NC(=O)C1CCN(S(=O)(=O)c2ccc3c(ccn3CC)c2)CC1 (stereo not drawn)	-19%	-1%
CC#C[C@]1(O)CC[C@H]2[C@@H]3CCC4=CC(=O)CCC4=C3[C@@H](c3ccc(N(C)C)cc3)C[C@@]21C	?	/
Cc1ccc(-c2noc(-c3ccccc3NC(=O)c3ccccc3)n2)cc1	40%[activator]	?
Cc1cccc(-c2nn3c(=O)cc(CN4CCN(C(=O)/C=C/c5ccccc5)CC4)nc3s2)c1	-25%	?
Cc1ccc(S(=O)(=O)NCC2CCC(C(=O)NCc3ccc(F)cc3)CC2)cc1 (stereo not drawn)	-4%	0%
CC(=O)c1ccc(NC(=O)Cn2c(=O)n(Cc3ccco3)c(=O)c3sc4ccccc4c32)cc1	-19%	-15%
COc1ccc(-c2cc(C(F)(F)F)nc(SCC(=O)NCC(C)C)n2)cc1OC	-6%	-20%
CNS(=O)(=O)c1cc(-c2nnc(Nc3cc(C)ccc3C)c3ccccc23)ccc1C	?	?
O=C(NCc1cccc(Cl)c1)c1ccc2c(Cl)c3c(nc2c1)CCCC3	-12%	?
COc1ccc(NC(=O)c2ccco2)cc1NC(=O)COc1ccc(Cl)c(C)c1	-38%	?
Cc1cccc(NC(=O)CN2C(=O)c3cccnc3Oc3ccc(Cl)cc32)c1C	-9%	-11%
